# Screening data deposited in PubChem by National Center for Advancing Translational Sciences (NCATS).
# Sfp PPTase inh: Sfp phosphopantetheinyl transferase inhibition; Potency, µM, without a hit: max response, negative = inhibition, most hits filed as inhibitors; hit rate 3.5% among 310,000; Biochemical Sfp PPTase activity, qHTS; Q9F4F7; AID 1490; active = well fitted inhibition curve with a large enough effect; inconclusive = small, poorly fitted or top-dose-only effect, or another doubt; inactive = no such curve, though single readings can be large or run the other way;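 also: the enzyme is Sfp with the accession as filed and its product quenches rhodamine fluorescence; potency is read from the fitted curve at half-maximal effect; 0% = enzyme reaction without inhibitor and -100% = no enzyme wells; top concentration of the series not given in the record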
#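 Sfp 15 nM + cpd, 15 min RT; start w/ rhodamine-CoA 5 uM, BHQ-2-YbbR 12.5 uM (final); 50 mM Hepes pH 7.6, 10 mM MgCl2, 0.01% NP-40, 0.01% BSA; read 525/598 nm at 0 and 30 min.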
# D2 agonist: agonists of human D2 dopamine receptor (beta-arrestin). DiscoveRx PathHunter D2 beta-arrestin, luminescence, 90 min; 100% = 57 uM dopamine signal. AID 624465. activation, % (concentration not given with the values). hit rate 0.084% among 360,000; in the data active = activation above about 40%; inconclusive = about 15% to 40%; inactive = below about 15%; also: compound concentration not given in the record; the text of the record calls up to 30% inactive
# Target sequence (P14416 whole entry, looked up): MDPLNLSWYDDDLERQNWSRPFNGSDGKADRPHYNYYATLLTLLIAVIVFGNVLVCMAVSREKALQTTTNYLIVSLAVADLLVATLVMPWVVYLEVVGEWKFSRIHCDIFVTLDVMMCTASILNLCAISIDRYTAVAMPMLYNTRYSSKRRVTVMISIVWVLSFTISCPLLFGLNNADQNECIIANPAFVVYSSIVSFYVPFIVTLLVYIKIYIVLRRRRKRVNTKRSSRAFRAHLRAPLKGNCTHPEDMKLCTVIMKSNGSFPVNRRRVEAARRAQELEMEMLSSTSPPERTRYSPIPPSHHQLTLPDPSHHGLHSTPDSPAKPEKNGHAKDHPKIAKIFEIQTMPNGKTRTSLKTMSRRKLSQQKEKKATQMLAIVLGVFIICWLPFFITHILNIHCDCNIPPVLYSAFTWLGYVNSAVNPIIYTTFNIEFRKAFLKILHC
#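 Agonist mode: compounds alone added to overnight-plated D2 PathHunter cells for 90 min at 37 C, with 57 uM final dopamine (EC100) defining full response. Beta-arrestin recruitment detected by chemiluminescent reagent, read after 1 h at ambient temperature.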
# gsp ag: agonists of gsp mutant (McCune-Albright syndrome). gsp mutant cells, cAMP HTRF, 30 min; control for the full effect not named in the record. Potency, µM (highest dose often 76.9 µM), for inactives: at the highest dose activation (cAMP increase), actives largely listed as activators. AID 624287. hit rate 0.13% among 340,000; active = well fitted activation curve with a large enough effect; inconclusive = small, poorly fitted or top-dose-only effect, or another doubt; inactive = no such curve, though single readings can be large or run the other way; cell line not stated here;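 also: phosphodiesterase inhibitor Ro 20-1724 added with compounds to block cAMP breakdown; potency is read from the fitted curve at half-maximal effect; nearly all actives have a fitted effect of over 60% in size; about a fifth of the inactives were tested at one dose only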
#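 Cells in DMEM/10% FBS with G418 were pretreated with compounds in DMSO plus […] (300 uM stock) for 30 min at 37C. cAMP was measured by HTRF (cAMP-d2 plus anti-cAMP antibody-K) after 30 min at room temperature.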
# gsp antagonist: antagonists of gsp mutant (McCune-Albright syndrome); gsp-mutant cells, cAMP HTRF, 30 min; control for the full effect not named in the record; hit rate 0.4% among 340,000; Potency, µM (highest dose often 76.9 µM), for the others: at the highest dose activity change, negative = inhibition, hits mostly inhibitors; active = falling curve of any shape with a large fitted effect; inconclusive = falling curve, mostly with a smaller effect; inactive = flat or rising curve; cell line not stated here;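 also: intracellular cAMP measured with PDE inhibitor Ro 20-1724 present during compound exposure; potency is read from the fitted curve at half-maximal effect; % is scaled to controls: 0 for no effect and ±100 for the full control effect; nearly all actives have a fitted effect of over 65% in size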
#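 Cells, 2000/well, grown 16–24 h in DMEM 10% FBS with 0.5 mg/ml G418, then compounds plus […] (300 uM addition stock), 30 min at 37C. cAMP read by HTRF (cAMP-d2 and anti-cAMP antibody-K in lysis buffer) after 30 min RT.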
# PINK1 modulator: changes PINK1 expression | Potency, µM (series often up to 76.6 µM), inactives show at the highest dose activation (PINK1 increase), actives largely listed as activators | PINK1 immunofluorescence, high-content cytometry, 24 h | AID 624263 | hit rate 0.2% among 410,000; active = well fitted activation curve with a large enough effect; inconclusive = small, poorly fitted or top-dose-only effect; inactive = flat fitted curve, though single readings scatter; cell line not stated here;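 also: potency is read from the fitted curve at half-maximal effect; % of control where 0% means no effect; nearly all actives have a fitted effect of over 65% in size; a mitochondrial uncoupler was the plate control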
#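 Decision-based qHTS: stable cells, 24 h exposure to five compound concentrations, CCCP as control. Fixed cells stained for PINK1 plus nuclear, mitochondrial and cell markers, cytometer read.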
# Menin-MLL FL inh: menin-MLL binding inhibition, fluorescein peptide; Fluorescence polarization, fluorescein-MLL peptide displacement from menin; FP activity change, % at 61.4 µM; 290,000 tested, under 10 active; inconclusive = falling polarisation curve, or a change in total fluorescence; inactive = total fluorescence flat and polarisation flat or rising; no compound was filed as active; the % refers to the polarisation; negative = inhibition;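 also: % of control where 0% means no effect; inhibitors lower the polarisation; unlabelled MLL peptide was the positive control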
# ClpP mod: qHTS Assay for Activators of ClpP. hit rate 1.9% among 340,000. Potency, µM (top dose mostly 57.5 µM), for the others: at the highest dose activity change, negative = active. purified B. subtilis ClpP, FRET peptide cleavage, 20 min. AID 651965, 2013. ATP-dependent Clp protease proteolytic subunit (Bacillus subtilis (strain 168)), P80244; active = well fitted falling curve with a large enough effect; inconclusive = small, poorly fitted or top-dose-only effect; inactive = no such curve, though single readings can be large or run the other way; also: potency is read from the fitted curve at half-maximal effect; the source files actives as falling curves though it sought activators and does not explain the sign; nearly all actives have a fitted effect of over 65% in size; many hits overshoot -100%
# Target sequence (P80244 whole entry, looked up): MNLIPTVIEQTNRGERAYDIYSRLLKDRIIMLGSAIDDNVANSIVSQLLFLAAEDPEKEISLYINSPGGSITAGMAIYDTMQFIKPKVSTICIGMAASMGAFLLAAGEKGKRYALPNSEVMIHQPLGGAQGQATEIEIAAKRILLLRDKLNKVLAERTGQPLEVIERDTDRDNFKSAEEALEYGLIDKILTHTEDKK
#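 FRET quenching reversal measured ClpP activation: 10 microg/mL B. subtilis ClpP at pH 8 with the FRET-FV decapeptide, read at 430 nm after 320 nm excitation. The 20-min minus 0-min signal was scaled between DMSO/no-enzyme wells and ADEP (5.8 microM final).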
# Active calls of the source: *; u = inconclusive; x = not tested or not shown; & = joins results of further samples; [ ] = remark or other dose.
nr	SMILES	Sfp PPTase inh	D2 agonist	gsp ag	gsp antagonist	PINK1 modulator	Menin-MLL FL inh	ClpP mod
1	Cc1ccc(S(=O)(=O)N(C)CC(=O)Nc2cccc(C)n2)cc1	13%	-2.0	1%	10%	-0.9%	3.8	-0.6%
2	S=c1nc(-c2cc(Cl)ccc2Cl)[nH][nH]1	50µM*	4.7	u	12%	-1.1%	-4.4	x
3	CC(C)(C)S(=O)(=O)N1C[C@H]2C(=CC[C@@H]3C(=O)N(c4ccccc4)C(=O)[C@@H]32)[C@H]1CCO	x	1.5	x	6%	0.4%	x	1.3%
4	O=C(Nc1cc(C(F)(F)F)ccc1N1CCOCC1)c1ccc(Br)o1	11%	-0.3	0%	-8%	-7.8%[38.3 µM]	1.4	5.2%
5	Cc1cc(C)n(CCN(C)Cc2nc(Cc3ccccc3F)no2)n1	20%	-3.2	-1%[15.4 µM]	3%	0.5%	-0.5	x
6	O=C(O)CCc1ccc(-c2ccccc2)n1CC(=O)O	-16%	0.0	-15%	6%	-0.8%	3.5	32µM*
7	O=C(NCC1CCN(S(=O)(=O)c2ccccc2)CC1)Nc1ccc(F)cc1	14%	-4.5	u	-16%	0.4%	-2.4	x
8	COc1cccc(C2OC(=O)c3ccccc3N2C(C)=O)c1OC(C)=O (stereo unspecified)	5%	-2.7	1%	-4%	0.4%	7.3	37%
9	Cc1cccc(N2CCN(C(=O)/C=C/c3ccco3)CC2)c1C	-20%	-0.5	-60%[inhibitor]	15%	1.5%	1.1	-5.9%
10	CCOC(=O)c1sc2nc(C)[nH]c(=O)c2c1C	11%	-2.6	-7%	-1%	-1.0%	-1.0	-16%
11	COc1ccccc1C(=O)N(C)c1nnc(-c2ccccc2)s1	-5%	1.4	u	-25%	2.1%	2.4	0.1%
12	COc1ccc(/C=C/C(=O)Nc2ccc3c(c2)OCCO3)cc1OC	2%	-2.5	u	-23%	1.6%	0.5	-2.9%
13	COc1ccc(S(=O)(=O)c2ccc(OC)cc2)cc1	-3%	0.0	-5%	-8%	1.5%	1.5	-0.9%
14	CC1CC(NC(=O)CC#N)CC(C)(C)C1 (stereo unspecified)	2%	0.7	14%[15.4 µM]	11%	0.2%	-0.8	x
15	O=C(NCc1ccc2[nH]c3c(c2c1)CCCC3)c1ccc(S(=O)(=O)N2CCCC2)cc1	7%	-4.8	-54%[inhibitor]	-11%	-2.4%	4.4	-0.4%
16	O=C(Nc1c(C(=O)Nc2ccccc2)cnn1-c1ccccc1)c1ccco1	0%	-0.6	-35%[inhibitor]	-12%	x	2.5	0.2%
17	CC(Oc1ccccc1)C(=O)N=C1SC2CS(=O)(=O)CC2N1c1ccccc1 (stereo unspecified)	17%	-4.7	-4%	5%	0.0%	-1.9	0.5%
18	CC(NS(=O)(=O)c1ccccc1Cl)C1CC2CCC1C2 (stereo unspecified)	11%	-4.0	3%	1%	0.0%	-1.7	x
19	NS(=O)(=O)c1ccc(NC(=S)NCCc2ccccc2)cc1	7.9µM*	3.1	30%	4%	0.7%	-2.6	-1.5%
20	COc1ccc(-n2cc(-c3ccc(C)cc3)[n+]3c2SCC3)cc1	17%	-2.4	-2%	5%	u	-0.8	u
21	Cc1nonc1NC(=O)CSc1nnc(N)s1	11%	-0.8	0%	13%	2.5%	-0.4	x
22	O=C(CCCc1ccccc1)Nc1ccc(S(=O)(=O)N2CCOCC2)cc1	4%	-4.3	6%[15.4 µM]	-17%	1.5%	2.5	x
23	COc1ccc(NC(=O)C2CCCO2)cc1 (stereo unspecified)	18%	-1.5	u	4%	-3.7%	1.2	-2.8%
24	Cc1nc(-c2ccc(Cl)cc2)sc1C(=O)CBr	-13%	-11	4%[15.4 µM]	6%	0.3%	-3.1	x
25	CC(=O)c1ccc(S(=O)(=O)N2CCC(c3nc4ccccc4[nH]3)CC2)cc1	-12%	-3.8	-14%[15.4 µM]	-4%	-0.6%	-1.5	x
26	Cc1c(NS(=O)(=O)c2ccc3c(c2)CCN3C(=O)C2CC2)c(=O)n(-c2ccccc2)n1C	-1%	-3.5	-1%	-18%	-1.4%	4.9	-5.3%
27	COc1ccc(OCCCC(=O)Nc2nc(-c3ccccn3)cs2)cc1	40µM*	0.8	-30%[inhibitor]	3%	9.9%	5.0	1.9%
28	CCc1noc(C)c1C(=O)N(C)CC(=O)Nc1ccc(Cl)c(Cl)c1	x	-5.2	13%	-17%	18%	x	1.9%
29	COc1cc(C(=O)NCc2ccccc2Cl)ccc1OCC(=O)N1CCOCC1	x	-0.6	-8%	8%	-1.8%	x	-2.0%
30	CN(CCOc1ccccc1)C(=O)C1CCC(=O)N(CCCN2CCOCC2)C1 (stereo unspecified)	14%	-0.7	-37%[inhibitor]	-6%	-0.6%	x	-11%
31	CC1CCN(CC(O)CN2c3ccccc3Sc3ccccc32)CC1 (stereo unspecified)	1%	-6.0	36%	2%	0.2%	-12	-1.1%
32	Cc1ccc(-n2nc(C)c3c(C(=O)OCC(=O)N(C)C4CCS(=O)(=O)C4)cc(-c4ccccc4)nc32)cc1 (stereo unspecified)	-14%	-3.2	0%[15.4 µM]	-20%	7.4%	1.6	x
33	CC(=O)Nc1ccc(SCC(=O)NCC2(N3CCCCC3)CCCCC2)cc1	x	-4.9	-2%[15.4 µM]	2%	0.2%	x	-21%
34	COc1ccc(-c2ccc(S(=O)(=O)n3nc(OC(=O)c4cccs4)cc3N)cc2)cc1	4%	-0.7	0%	-17%	4.0%	-2.3	-6.4%
35	Cc1ccc(S(=O)(=O)N(C)c2ccc(OC(=O)c3ccc(=O)[nH]c3)cc2)cc1	-2%	-7.8	-77%[inhibitor]	-1%	1.3%	0.1	-2.2%
36	CC1CC(C)CN(S(=O)(=O)N2CCC(C(=O)NCc3ccco3)CC2)C1 (stereo unspecified)	12%	2.1	25%	1%	0.1%	-0.4	3.2%
37	COc1ccccc1-c1cc2nc(NCCc3ccncc3)ccn2n1	x	4.4	x	x	2.0%	x	4.2%
38	CN1C(=S)SC(/[N+]([O-])=C\c2ccccc2F)C1(C)C (stereo unspecified)	1%	-4.8	u	6%	2.2%	-2.1	-2.1%
39	O=C(Nc1ccccc1Oc1cccnc1)C1CCCN(Cc2ccc(F)cc2)C1 (stereo unspecified)	11%	-1.1	10%	-2%	7.7%	x	0.6%
40	COc1ccc(/C(=N\O)c2nccc3cc(OC)c(OC)cc23)cc1OC	13%	4.8	u	19%	0.2%	-2.3	x
41	O=S(=O)(NCCOCC(F)(F)C(F)F)c1ccc2oc3ccccc3c2c1	17%	-2.5	-18%	u	0.5%	0.9	0.2%
42	Cc1csc(NC(=O)c2ccc(Cn3nc(C)c(Br)c3C)o2)n1	-1%	1.7	11%[15.4 µM]	-18%	5.5%	12	2.6%
43	COc1ccccc1CNC(=O)C1CCN(C(=O)c2sccc2-n2cccc2)CC1	18%	0.5	u	-9%	-1.1%&0.8%	x	-1.9%&1.4%
44	Cn1c(CN2CCCC2)nc2cc(NC(=O)c3ccco3)ccc21	10%	-3.2	-6%	1%	x	2.9	1.0%
45	COc1cc2[nH]c(=S)n(C3CCN(Cc4ccccc4)CC3)c(=O)c2cc1OC	-5%	-0.9	0%[15.4 µM]	-5%	12%	2.4	-9.5%
46	CCOc1ccc(OCCC(=O)N(CC)CC(=O)Nc2c(F)cccc2F)cc1	x	-1.6	-13%	9%	-0.7%	x	-0.5%
47	CCCCNc1c(-c2ccc(-c3cccc(Cl)c3)cc2)nc2ccccn12	x	-1.5	x	-15%	u	x	u
48	COc1ccc(C(=O)Oc2ccc(Br)cc2C(=S)N2CCOCC2)cc1	-6%	-4.1	3%	-17%	-1.3%	0.1	x
49	CC(C)C(NS(=O)(=O)c1cccc(C(F)(F)F)c1)C(=O)NCc1cccs1 (stereo unspecified)	x	-0.8	u	3%	0.3%	x	-1.0%
50	COc1cccc(C2C3=C(CC(C)(C)CC3=O)Nc3cc4c(cc32)OCO4)c1 (stereo unspecified)	-16%	-3.2	u	-10%	1.0%	1.4	3.7%
51	COc1ccc(NC(=O)CCN2C(=O)c3ccccc3C2=O)c(OC)c1	18%	-2.9	-1%[15.4 µM]	6%	-1.9%	3.2	-6.1%
52	COc1cc2ccccc2cc1C(=O)NCCCN1CCOCC1	x	2.8	-11%[15.4 µM]	9%	2.5%	x	x
53	C/C(=N\NC(=S)Nc1c(C)cccc1C)c1cc2ccccc2o1	4%	-12	-89%[inhibitor]	-20%	4.2%	2.8	4.2%
54	O=C(c1cccc(F)c1)N1CCC2(CCCN(C(c3ccccc3)c3ccccc3)C2)CC1	u	x	x	x	15%	0.9	x
55	CC(C)C(C(=O)NC1CCCC1)N(CC1CCCO1)C(=O)CNS(=O)(=O)c1ccc(F)cc1 (stereo unspecified)	6%	-1.7	7%[15.4 µM]	8%	0.7%	x	x
56	Cc1ccc(S(=O)(=O)N2CCOCC2)cc1-c1n[nH]c(=S)n1-c1ccccc1	x	4.2	-41%[inhibitor]	-8%	-2.0%	x	0.2%

# Continuation.
nr	SMILES	Sfp PPTase inh	D2 agonist	gsp ag	gsp antagonist	PINK1 modulator	Menin-MLL FL inh	ClpP mod
57	Nc1ccc2nc(-c3ccc(-c4nc5ccc(N)cc5[nH]4)cc3)[nH]c2c1	-6%	-0.7	u	10%	-0.7%	9.4	-5.4%
58	COc1ccc(-c2ccc(CCC(=O)O)n2CC2CCCO2)cc1 (stereo unspecified)	5%	0.2	6%	-12%	7.6%	-0.5	x
59	CC(C)(C)OC(=O)C[C@@H]1C/C=C\C[C@@H](CC(=O)N[C@H](CO)Cc2ccccc2)C(=O)NCCOC1=O	x	3.0	x	15%	-0.3%	x	-1.0%
60	CN1C(=O)C2(OCC(C)([N+](=O)[O-])CO2)c2ccccc21 (stereo unspecified)	18%	1.1	-1%[15.4 µM]	3%	-0.6%	-0.8	x
61	S=c1[nH]nc(-c2ccccc2)n1/N=C/c1cccs1	-28%	-1.1	-31%[inhibitor]	-9%	-5.1%[38.3 µM]	-1.2	1.2%

# Not a hit list (roughly 5.1% active in at least one column).
